Screens: PubChem BioAssay, ICCB-Longwood Screening Facility, Harvard Medical School
PV pol inh: inhibitors of poliovirus RNA polymerase binding and polymerization; 0.66% of 150,000 active; % elongation, % (compound at 16.7 µg/mL); poliovirus polymerase elongation, fluorescence polarization; hits give low values; P03300; in the data active means % elongation below about 90%; further: some results filed as inactive read as strong as hits
Target sequence (P03300 1749-2209 limits assumed): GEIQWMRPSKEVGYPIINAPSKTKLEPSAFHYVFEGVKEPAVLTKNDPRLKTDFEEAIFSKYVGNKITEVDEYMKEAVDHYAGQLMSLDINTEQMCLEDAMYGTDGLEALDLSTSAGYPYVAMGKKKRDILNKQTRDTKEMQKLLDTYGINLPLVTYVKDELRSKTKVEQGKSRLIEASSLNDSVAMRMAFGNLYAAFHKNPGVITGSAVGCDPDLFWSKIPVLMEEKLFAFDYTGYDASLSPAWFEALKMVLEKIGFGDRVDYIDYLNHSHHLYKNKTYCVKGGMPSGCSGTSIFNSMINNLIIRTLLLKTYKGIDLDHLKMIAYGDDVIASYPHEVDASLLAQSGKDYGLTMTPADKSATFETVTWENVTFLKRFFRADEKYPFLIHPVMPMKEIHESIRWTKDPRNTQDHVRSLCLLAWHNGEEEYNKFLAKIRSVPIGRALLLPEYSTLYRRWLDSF
PV pol inh intensity: also measured in PV pol inh; calls as there; % elongation; measured here: total intensity read-out; formula for this scale not given here;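 total fluorescence in place of polarization; lower means less elongation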
* = called active by the depositor.

SMILES,PV pol inh,PV pol inh intensity
O=c1c2[nH]c3ccccc3c2nc(SCc2cccc(F)c2)n1-c1ccccc1,112,116
CCCCOc1ccc(C2=NC(c3cccs3)=Nc3ccc(OC)cc3N2)cc1,109,93
CCCc1noc(-c2ccc(N3CCCCC3)c([N+](=O)[O-])c2)n1,105,108
Cc1ccc(CNC(=O)c2ccc(Cn3c(=O)c4ccccc4n(CC(=O)Nc4ccc(C)cc4C)c3=O)cc2)cc1,112,110
COc1ccc(C2c3c(n(C)c4ccccc34)C(=O)N2CC(=O)Nc2ccc(F)cc2)cc1 (stereo unspecified),108,105
Cc1ccc(NC(=O)C2CCCN2S(=O)(=O)c2cccc3cccnc23)cc1C (stereo unspecified),102,105
Cc1ccc(Cn2ccn(Cc3ccccc3C)c(=O)c2=O)cc1,109,108
O=C(O)CCCNc1cc(N2CCN(C3CCCCC3)CC2)c2noc3c2c1C(=O)c1ccccc1-3,90,96
CCn1c2ccccc2c2nnc(SCC(=O)Nc3ccccc3OC)nc21,104,102
CCCC(O)c1nc2ccccc2n1CCCCOc1ccc(OC)cc1 (stereo unspecified),101,106
COc1ccc2c(c1)-c1nc(NC(=O)c3cccc(Br)c3)sc1CC2,106,108
Cc1ccc(-c2noc(-c3ccccc3NC(=O)C3CC(=O)N(c4cccc(C)c4)C3)n2)cc1 (stereo unspecified),103,106
Cc1ccc2oc(=O)c3cc(C(=O)NCCc4ccc(Cl)cc4)sc3c2c1,106,110
COc1ccc(C(CNC(=O)c2oc3ccc(Cl)cc3c2C)N2CCCCC2)cc1 (stereo unspecified),102,92
COc1ccc(CNC(=O)CN(C)S(=O)(=O)c2ccc3c(c2)c(=O)n(C)c(=O)n3C)cc1,102,95
CCOc1ccc(NC(=O)CSc2oc(-c3cccs3)nc2S(=O)(=O)c2ccc(C)cc2)cc1,108,107
CCOc1ccc(CN2C(=O)c3ccccc3Sc3ccc(C(=O)NC)cc32)cc1,108,114
CCOc1ccc(NC(=O)c2oc3ccccc3c2NC(=O)c2cc3ccccc3o2)cc1,104,110
COc1ccc(Cn2c(C(=O)O)c(CNCCc3cccs3)c3ccc(OC)cc32)cc1,113,113
CCC(C(=O)Nc1ccccc1C(=O)OC)n1c(C)c2cnn(-c3ccccc3)c(=O)c2c1C (stereo unspecified),104,108
Cc1cccc(NC(=O)c2cc(S(=O)(=O)N3CCN(c4ccccc4F)CC3)ccc2F)c1C,109,108
CCS(=O)(=O)c1ccccc1C(=O)N(Cc1cccnc1)c1nc2cc(C)c(C)cc2s1,110,92
CCOc1ccc(NC(=O)Cn2nnc(C(=O)NCCc3ccccc3)c2N)cc1,112,115
CN(C)c1ccc(CNC(=O)CCCN2C(=O)CCn3nc(-c4cn(C)c5ccccc45)cc32)cc1,104,110
COc1cc(Nc2nn(-c3ccc(OC(F)(F)F)cc3)nc2C(C)=O)cc(OC)c1,112,115

SMILES,PV pol inh,PV pol inh intensity
Cc1cc(C)cc(NS(=O)(=O)c2ccc3[nH]cc(C(=O)N(C)Cc4ccccc4)c(=O)c3c2)c1,109,105
Cc1ccc(Cl)cc1NC(=O)CN1C(=O)C(C)(C)c2cc(S(=O)(=O)N3CCCCC3)ccc21,105,99
Cc1nc(-c2ccccc2)sc1CCNS(=O)(=O)c1ccc(Br)cc1,101,97
CCOC(=O)c1cnc2cc(-c3ccc(OCC)cc3)nn2c1-c1ccccc1,112,117
Cc1ccc(NC(=O)C2CCCN2S(=O)(=O)c2ccc3c(c2)C(C)(C)C(=O)N3C)cc1 (stereo unspecified),111,111
CCc1nn(CC(=O)N2CCCCC2)c(=O)c2cc3sc(C)cc3n12,114,115
Cc1ccc(CNC(=O)c2c(Nc3c(C)cccc3C)sc(C(=O)c3ccccc3)c2N)cc1,107,113
CCOC(=O)c1c(S(=O)(=O)NCC(=O)Nc2ccc(C)c(Cl)c2)c(C)n(C)c1C,104,107
Cc1c(Cl)cccc1NC(=O)Cn1nc(C)c2sc3ccccc3c2c1=O,99,102
CCc1nnc(SCC(=O)Nc2ccc(Cl)cc2F)c2cc3occc3n12,110,105
CCOc1ccccc1NC(=O)C1CCCN(S(=O)(=O)c2cn(C)cn2)C1 (stereo unspecified),101,104
Cc1ccc(-c2nonc2NC(=O)c2ccco2)cc1C,104,114
CCOc1ccc(NS(=O)(=O)c2ccc3[nH]cc(C(=O)N(C)C4CCCCC4)c(=O)c3c2)cc1,107,102
COc1ccc(C)cc1NC(=O)N1CC(C)Sc2ccccc21 (stereo unspecified),102,103
Cc1ccc(C2CC(=O)n3nc(-c4ccc(F)cc4)nc3S2)cc1 (stereo unspecified),106,112
CCOC(=O)c1sc2ccccc2c1S(=O)(=O)Nc1ccc(OC)c(Cl)c1,109,114
Cc1oc(-c2cccc(Cl)c2)nc1CN1CCC(C(=O)NCCCN2CCN(c3cccc(Cl)c3)CC2)CC1,108,110
O=C(C1CCC1)N1CCc2cc(S(=O)(=O)N3CCN(c4ccccc4)CC3)ccc21,112,114
Cc1cccc(NC(=O)Cn2cc(C(=O)c3ccccc3)c3ccccc32)c1,104,100
CCOc1ccc(C2c3c(oc4ccc(C)cc4c3=O)C(=O)N2CCCN(C)C)cc1 (stereo unspecified),106,111
CCN(c1cccc(C)c1)S(=O)(=O)c1ccc(N2CCCCS2(=O)=O)cc1,102,102
Cc1oc(-c2ccc(Cl)cc2)nc1CN1C(=O)CN=C(c2ccccc2)c2ccccc21,107,104
COc1ccc(-c2cc3nc(C)c(CCC(=O)NCCc4ccc(Cl)cc4)c(C)n3n2)c(OC)c1,112,110
Clc1ccccc1OCCSc1nnc(-c2cccs2)o1,102,105
CCNC(=O)CC1C(=O)N(c2ccc(C)cc2)C(=O)N1CCC(C)C (stereo unspecified),106,105

SMILES,PV pol inh,PV pol inh intensity
CCc1ccc(NC(=O)Cn2c(=O)n(Cc3ccco3)c(=O)c3cccnc32)cc1,106,105
COc1ccc(S(=O)(=O)NCC(c2ccc(N(C)C)cc2)N2CCc3ccccc32)cc1 (stereo unspecified),108,109
CC(C)N(Cc1ccccc1)C(=O)CN1C(=O)CSc2ccc(S(=O)(=O)N3CCCC3)cc21,113,113
Cn1c(=O)n(C)c2cc(N3CCOCC3)c(NS(=O)(=O)c3ccc(Cl)cc3)cc21,102,105
COc1ccc(NC(=O)c2nc(-c3ccc(C)cc3)n3c2CCCCC3)cc1,102,101
Cc1ccc(NC(=O)N(Cc2cn(C)c3ccccc23)C2CCCCC2)cc1C,111,111
Cc1ccccc1CNCc1c(C(=O)O)c(C)n(Cc2ccc(F)cc2Cl)c1C,103,105
Cc1cccc(CS(=O)(=O)c2ncc(Cl)c(C(=O)Nc3nc4ccc(F)cc4s3)n2)c1,106,103
CCCN(C(=O)c1cc2c(s1)-c1ccccc1SC2)c1ccccc1F,110,109
Oc1ccc(NCc2ccc(OCc3ccccc3)cc2)cc1,97,97
O=C(c1cccs1)N(Cc1cccnc1)c1nc2c(F)cc(F)cc2s1,107,113
CN1CCN(C(CNC(=O)c2ccccc2F)c2ccc3c(c2)OCO3)CC1 (stereo unspecified),111,113
CCc1nn2c(=O)cc(COC(=O)c3ccccc3NC(=O)c3ccc(C(C)(C)C)cc3)nc2s1,110,106
CCOC(=O)c1ccc(NC(=O)Cn2cnc(S(=O)(=O)N3CCCC3)c2)cc1,105,108
CCCN(Cc1cccs1)C(=O)Nc1cc(C)cc(C)c1,105,103
Cc1ccc(CS(=O)Cc2ccc(C(=O)NCc3ccccc3Cl)o2)cc1 (stereo unspecified),108,110
COc1ccccc1N1CCN(C(=O)C2CCN(S(=O)(=O)c3cnc[nH]3)CC2)CC1,109,109
Cc1ccc2nc(NCc3ccccc3)c3nncn3c2c1,102,105
CCCc1nn2c(=O)cc(COC(=O)c3ccccc3NC(=O)COc3ccccc3F)nc2s1,107,112
O=C1COc2ccc(-c3cc(-c4ccccc4)c4c(n3)-c3ccccc3OC4)cc2N1,109,110
COc1ccc(-c2nc(C)c(CCNS(=O)(=O)c3cc(C)c(C)cc3C)s2)cc1,99,104
Cc1c(Cl)cccc1NC(=O)Cn1cnc2nc3c(cc2c1=O)CCCC3,110,100
CC(C)CSc1nnc(-c2ccccc2)c(-c2ccccc2)n1,109,110
COc1cc(NC(=O)Cn2nc(C(F)(F)F)c3c2CCCC3)c(OC)cc1Cl,110,113
CCC(=O)N1CCc2cc(Br)cc(S(=O)(=O)N3CCN(c4cc(C)ccc4C)CC3)c21,106,110

Next part (5 carried over from the part before).
SMILES,PV pol inh,PV pol inh intensity
COc1ccc(-c2nc(C)c(CCNS(=O)(=O)c3cc(C)c(C)cc3C)s2)cc1,99,104
Cc1c(Cl)cccc1NC(=O)Cn1cnc2nc3c(cc2c1=O)CCCC3,110,100
CC(C)CSc1nnc(-c2ccccc2)c(-c2ccccc2)n1,109,110
COc1cc(NC(=O)Cn2nc(C(F)(F)F)c3c2CCCC3)c(OC)cc1Cl,110,113
CCC(=O)N1CCc2cc(Br)cc(S(=O)(=O)N3CCN(c4cc(C)ccc4C)CC3)c21,106,110
COc1ccc(CC(=O)NCCc2sc(-c3ccc(Cl)cc3)nc2C)cc1OC,102,107
COc1cc(C(CC(=O)NCc2ccccc2)N2Cc3ccccc3C2=O)cc(OC)c1OC (stereo unspecified),110,97
CCOC(=O)c1ccc(NC(=O)CSc2nnc(CNC(=O)c3ccc(OC)cc3)n2CC)cc1,103,104
CCOC(=O)CC(NS(=O)(=O)c1ccc2[nH]c3c(c2c1)CCCC3)c1ccccc1Cl (stereo unspecified),102,95
CCOc1ccc(NC(=O)c2c(NC(=O)c3ccccc3Br)sc3c2CCC(C)C3)cc1 (stereo unspecified),78*,80*
O=C(Nc1c(C(=O)N2CCN(c3ccccc3)CC2)oc2ccccc12)c1ccc(Br)o1,110,114
Cc1ccc(N(C)S(=O)(=O)c2nnc(NC(=O)C3CCCCC3)s2)cc1,112,117
Cc1ccc(NC(=O)c2oc3ccc4c(c3c2C)C(=O)CC(C)(C)O4)c(C)c1,110,114
CCNC(=O)CCCN1C(=O)CCn2nc(-c3cccn3C)cc21,104,109
CCOc1ccc(CCNC(=O)C2CCN(Cc3nc(-c4ccc(OC)c(OC)c4)oc3C)CC2)cc1OCC,107,110
CCOc1ccc(NC(=O)CSc2nnc(CNC(=O)c3c(F)cccc3Cl)o2)cc1,115,117
Cc1cc(C)c2c(n1)sc1c(=O)n(-c3cc(Cl)ccc3C)nnc12,113,117
COc1ccccc1C(=O)Nc1nnc(S(=O)(=O)N2CCCCC2)s1,105,113
CC(C)(C)OC(=O)N1CCC(c2c(C(=O)N3CCN(C(=O)c4ccco4)CC3)cnn2-c2ccc(F)cc2F)CC1,103,98
CCCN(Cc1cccs1)C(=O)Nc1ccc(OCC)cc1,111,116
O=C(C1COc2ccccc2O1)N(Cc1cccnc1)c1nc2c(F)cc(F)cc2s1 (stereo unspecified),104,109
COc1ccc(NC(=O)CN(C)S(=O)(=O)c2cnc[nH]2)cc1,104,110
Cc1ccc(C(=O)CSc2nc(-c3ccccc3)nc3c2CCCC3)c(C)c1,105,109
CCSc1nnc2c(n1)OC(c1sccc1C)N(C(C)=O)c1ccccc1-2 (stereo unspecified),102,104
Cc1ccc(CN2COc3ccc4c(C)cc(=O)oc4c3C2)cc1,110,117
COc1ccc(NS(=O)(=O)c2ccc(N3CCCCS3(=O)=O)cc2)cc1Cl,107,116
Cc1nn(-c2ccc(N3CCOCC3)nn2)c(C)c1CCC(=O)NCc1ccc(Cl)cc1,104,100
Fc1ccccc1C1=NC(c2ccc(C(F)(F)F)cc2)=Nc2ccccc2N1,109,112
CCOC(=O)c1c(NC(=O)CSc2cn(CCNC(=O)c3ccc(OC)c(OC)c3)c3ccccc23)sc2c1CCC2,107,110
CCOc1ccc(CNC(=O)c2nn(-c3ccc(OC)cc3)c(=O)c3c2c2ccccc2n3C)cc1,114,107

Compound profiles, as listed above.
CCOc1ccc(CCNC(=O)C2CCN(Cc3nc(-c4ccc(OC)c(OC)c4)oc3C)CC2)cc1OCC in the list: PV pol inh: 107; PV pol inh intensity: 110
O=C(Nc1c(C(=O)N2CCN(c3ccccc3)CC2)oc2ccccc12)c1ccc(Br)o1 in the list: PV pol inh: 110; PV pol inh intensity: 114

The listing continues.
SMILES,PV pol inh,PV pol inh intensity
CCC1CN(C(=O)C2CCN(S(=O)(=O)c3c(C)noc3/C=C/c3ccc(C)cc3)CC2)c2cc(C)ccc2O1 (stereo unspecified),105,107
COc1ccccc1C1C=C(c2ccc(C(C)C)cc2)Nc2nnnn21 (stereo unspecified),106,111
O=C(C1CCN(c2ncnc3c2nc2n3CCCCC2)CC1)N1CCN(c2ccccc2F)CC1,104,105
CCN(CCCNC(=O)CN1N=C(c2ccc(OC)cc2)CCC1=O)c1cccc(C)c1,104,97
Cc1cc(C)cc(N2C(=O)CSC23C(=O)N(Cc2c(F)cccc2Cl)c2ccccc23)c1 (stereo unspecified),104,97
COCCNC(=O)Cn1nc(-c2ccccc2)c2ccccc2c1=O,110,113
Cc1nc2nc(NCc3cccc(Br)c3)[nH]n2c(=O)c1Cc1ccccc1,116,115
CCn1c2ccccc2c2nnc(N3CCN(c4cccc(C)c4C)CC3)nc21,108,111
Cc1cccc(-c2noc(CN(C(C)C)S(=O)(=O)c3ccc(Br)cc3)n2)c1,102,102
Cc1ccccc1Cn1nnc2c(=O)[nH]c(C3CCN(C(=O)c4ccccc4)CC3)nc21,105,113

This is a subset; count on the stated rates, not on these rows.
